SARS PLpro yeast – qHTS of Yeast-based Assay for SARS-CoV PLP. S. cerevisiae expressing SARS-CoV PLpro, growth rescue; control for the full effect not named in the record. hit rate 0.19% among 330,000. Potency, µM (doses to about 32.9 µM), inactives show at the top dose activity, positive = growth rescue. AID 485353, 2010; note: 0% is about no effect; nearly all actives have a fitted effect of over 55% in size; growth read by luminescence after 48 h
NS1 function inh – qHTS Assay for Inhibitors of Influenza NS1 Protein Function; S. cerevisiae slowed by influenza A NS1, growth recovery by OD600; Potency, µM (highest dose often 46.1 µM), without a hit: at the highest dose activity, positive = more growth; hit rate 0.4% among 270,000; note: actives are rising curves; nearly all actives have a fitted effect of over 50% in size
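Growth recovery, yeast-based: influenza A NS1 expressed in S. cerevisiae causes slow growth, and suppressors are detected by OD600. The parent strain without NS1 is used as positive control.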
Cruzain inh noDet – qHTS Assay for Promiscuous and Specific Inhibitors of Cruzain (without detergent); Cruzipain (Trypanosoma cruzi), P25779; purified cruzain, Z-FR-AMC fluorescence, no detergent; Potency, µM, for the others: max response, negative = inhibition, actives largely listed as inhibitors; hit rate 2.3% among 200,000; active = well fitted curve in the direction sought with a large enough effect; inconclusive = small, poorly fitted or top-dose-only effect, or another doubt; inactive = no such curve, though single readings can be large; an effect the other way counts as inactive or inconclusive;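 note: plate controls were enzyme without inhibitor for no effect and buffer without enzyme for full effect; nearly all actives have a fitted effect of over 40% in size; top concentration of the series not given in the record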
Target sequence (P25779 123-467 limits assumed): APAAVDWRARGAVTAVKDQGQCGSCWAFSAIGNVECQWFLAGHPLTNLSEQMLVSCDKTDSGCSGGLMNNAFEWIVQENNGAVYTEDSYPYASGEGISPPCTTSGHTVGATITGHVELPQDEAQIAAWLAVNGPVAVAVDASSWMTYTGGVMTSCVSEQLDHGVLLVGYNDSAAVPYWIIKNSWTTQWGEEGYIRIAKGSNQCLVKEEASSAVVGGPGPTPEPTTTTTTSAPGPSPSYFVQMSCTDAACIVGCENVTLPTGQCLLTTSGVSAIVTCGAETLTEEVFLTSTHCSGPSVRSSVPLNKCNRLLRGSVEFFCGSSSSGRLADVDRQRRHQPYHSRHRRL
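Purified cruzain at 1.5 nM, pre-incubated 15 min with compound at room temperature in 100 mM sodium acetate pH 5.5, 5 mM DTT, 0.00005% Triton X-100. Reaction started with 2 uM Z-FR-AMC; AMC fluorescence increase over 60 s gives rate.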
2A StopGo – High Throughput Screening for Foot and Mouth Disease Virus Antivirals; human cells with a luciferase reporter of 2A StopGo recoding; control for the full effect not named in the record; Potency, µM (doses to about 57.9 µM), inactives show top-dose signal change, negative = less light; hit rate 1.2% among 410,000; active = well fitted falling curve with a large enough effect; inconclusive = small, poorly fitted or top-dose-only effect; inactive = no such curve, though single readings can be large or run the other way; tested in HEK293T cells; note: % is set by controls: 0 for no effect and ±100 for the full control effect; nearly all actives have a fitted effect of over 45% in size; luciferase light after 4 h
Cruzain Triton – qHTS Assay for Promiscuous and Specific Inhibitors of Cruzain (with detergent). Cruzipain (Trypanosoma cruzi), P25779. purified cruzain, Z-FR-AMC fluorescence, 0.01% Triton. Potency, µM, for inactives: max response, negative = inhibition, usual class: inhibitors. hit rate 0.43% among 200,000; active = well fitted curve in the direction sought with a large enough effect; inconclusive = small, poorly fitted or top-dose-only effect, or another doubt; inactive = no such curve, though single readings can be large; an effect the other way counts as inactive or inconclusive;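 note: plate controls were neutral wells for no effect and buffer without enzyme for full effect; nearly all actives have a fitted effect of over 40% in size; top concentration of the series not given in the record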
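Detergent-containing arm of a paired screen for aggregation-based inhibition: 0.01% Triton X-100 present. Cruzain at 1.5 nM cleaved 2 uM Z-FR-AMC at pH 5.5 with 5 mM DTT; AMC fluorescence gain over 60 s measured activity.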
MARV entry inh – qHTS for inhibitors of binding or entry into cells for Marburg Virus; hit rate 1.8% among 300,000; Marburg virus pseudotyped entry inhibition, cell reporter; control for the full effect not named in the record; about a third of the inactives were read at about 46 µM; Potency, µM (highest dose often 37.8 µM), inactives show at the highest dose activity change, negative = inhibition, most hits filed as inhibitors; AID 540276, 2011; active = well fitted inhibition curve with a large enough effect; inconclusive = small, poorly fitted or top-dose-only effect, or effect the other way; inactive = flat fitted curve, though single readings scatter; tested in HEK293 cells; about a fifth of its hits are not listed in these tables; note: % is set by controls: 0 for no effect and ±100 for the full control effect; luciferase read-out
RE007 growth inh – qHTS Assay for Inhibitors of the HIV-1 protein Vpr; S. pombe RE007 Vpr strain, BacTiter-Glo ATP luminescence, 24 h; control for the full effect not named in the record; Potency, µM (titrated, usually from 92.2 µM), for inactives: at the top dose activity change, negative = less growth; hit rate 0.21% among 360,000; active = well fitted falling curve with a large enough effect; inconclusive = small, poorly fitted or top-dose-only effect; inactive = no such curve, though single readings can be large or run the other way;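 note: % is set by controls: 0 for no effect and ±100 for the full control effect; nearly all actives have a fitted effect of over 50% in size; the assay follows cell death caused by Vpr and the record does not say whether a fall means rescue or toxicity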
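Fission yeast strain RE007, carrying one chromosomally integrated HIV-1 vpr copy, was seeded at OD 0.01 in PMG+AL medium with 23 nL pinned compound. After 24 h at 30 °C and 99% humidity, viability was read by BacTiter-Glo luminescence.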
LASV entry inh – qHTS for Inhibitors of binding or entry into cells for Lassa Virus. Lassa virus pseudotype entry inhibition, cell reporter; control for the full effect not named in the record. Potency, µM (doses to about 37.9 µM), inactives show at the highest dose activity change, negative = inhibition, usual class: inhibitors. hit rate 1.2% among 300,000. AID 540256, 2011; active means well fitted inhibition curve with a large enough effect; inconclusive means small, poorly fitted or top-dose-only effect, or effect the other way; inactive means flat fitted curve, though single readings scatter; tested in HEK293 cells; note: % is set by controls: 0 for no effect and ±100 for the full control effect; nearly all actives have a fitted effect of over 50% in size; luciferase read-out
Starred values were filed as active, the others as inactive; ? = inconclusive; / = not tested or not shown; & = joins results of further samples; [ ] = another dose, or the depositor's remark. Unless noted, calls come from the whole dose curve; as a rule, active means well fitted rising curve with a large enough effect; inconclusive means small, poorly fitted or top-dose-only effect; inactive means no such curve, though single readings can be large or run the other way. Potency is the fitted concentration of half-maximal effect.

compound	SARS PLpro yeast	NS1 function inh	Cruzain inh noDet	2A StopGo	Cruzain Triton	MARV entry inh	RE007 growth inh	LASV entry inh
Cc1ccc(C(=O)NC2CCN(S(=O)(=O)c3ccc(C)cc3)CC2)cc1	-1%	-1%	/	0%	/	-2%[46.1 µM]	-5%	-24%
O=C1NC(=S)NC(=O)C1Cc1ccccc1	/	/	/	-12%	/	2%	1%	7%[46.1 µM]
CCOC(CNC(=O)C(=O)Nc1cc2c3c(c1)CCC(=O)N3CCC2)OCC	-5%	11%	/	-22%	/	-2%[46.1 µM]	3%	16%[46.1 µM]
COc1ccc(OC)c(CCNC(=O)c2cnn(-c3ccc(C)cc3C)c2C2CCN(C(=O)OC(C)(C)C)CC2)c1	/	/	?	?	-11%	/	/	?
CN1CCN(CCCNC(=O)c2cc3c(-c4ccc(Cl)cc4)nn(C)c3s2)CC1	0%	-29%	-30%	-17%	-29%	1%	3%	/
O=C(COc1ccc(Cl)cc1)NCc1nnc(SCC(=O)N2CCCCC2)o1	5%	-2%	2%	-3%	-7.6%	10%	7%	-2%
COc1ccc(N=N/C(C(C)=O)=C(/C)O)cc1	-1%	-6%	/	22%	/	24%[46.1 µM]	-23%	0%[46.1 µM]
CN(C(=O)C1CCCCN1S(=O)(=O)c1ccccc1)c1ccccc1 (centres undefined)	4%	/	/	-14%	/	?	6%	?
Oc1cc2c(cc1O)[C@H]1c3ccccc3CN[C@H]1CC2	/	/	5%	-4%&-6%	-0.8%	16µM*	/	/
COc1ccccc1C(=O)COC(=O)CN1C(=O)C2CC=CCC2C1=O (centres undefined)	-1%	/	/	1%	/	-2%[46.1 µM]	4%	0%
O=C(NC1CCCCC1)C(c1ccco1)N(Cc1cccs1)C(=O)Cn1nnc2ccccc21 (centres undefined)	1%	-4%	-2%	8%	0.4%	-5%&-23%	-6%	52%[14.3 µM]
COc1ccc(-c2nc(=S)c3c([nH]2)Oc2ccc(C)cc2C3)cc1O	13%	10µM*	10µM*	-16%	0.3%	-6%	13%	25%
COc1cc(OC)cc(N2C(=O)CC(N3CCC(C(=O)N4CCCCC4)CC3)C2=O)c1 (centres undefined)	-18%	-118%	/	-4%	/	?	32µM*	20%
O=c1c2ccccc2c(C=NCc2ccccn2)c(O)n1-c1ccccc1	29%	?	-3%	-3%	-4.8%	7%	7%	-3%
CCN(CC)S(=O)(=O)c1ccc(Cl)c(NC(=O)c2ccncc2)c1	-1%	0%	/	-8%	/	?	-1%	11%
COc1ccc(-c2cc(CNC(=O)CN3CCN(C)CC3)on2)cc1	-2%	-9%	-11%	-11%	-4.9%	3%	22%	15%
Cc1ccc(S(=O)(=O)N2CCN(c3ccc(C(=O)N4CCOCC4)cc3[N+](=O)[O-])CC2)cc1	-3%	-9%	?	-13%	-4.7%	-43%	25%	-20%
COc1ccc(Cl)cc1NC(=O)CSc1sc2c(O)cc(=O)[nH]c2c1C#N	5%	28%	/	-2%	/	-5%[46.1 µM]	19%	-2%
Cc1ccccc1OCCn1cc(C=O)c2ccccc21	3%	?	/	?	/	?	12%	-29%
COc1ccc(N2C(=O)CC2(C#N)c2ccc(OCc3ccccc3)cc2)cc1 (centres undefined)	4%	4%	-11%	15%	-0.9%	?	-17%	?

More records follow:
compound	SARS PLpro yeast	NS1 function inh	Cruzain inh noDet	2A StopGo	Cruzain Triton	MARV entry inh	RE007 growth inh	LASV entry inh
O=C(NCc1nnc(SCC(=O)N2CCCCC2)o1)c1c(F)cccc1Cl	?	16%	/	-4%	/	5%[46.1 µM]	0%	21%[46.1 µM]
CC(C(=O)N1CCCCCC1)c1ccc([N+](=O)[O-])cc1 (centres undefined)	0%	-2%	/	-8%	/	/	4%	/
COc1ccc(C(=O)NC2CCN(C(=S)Nc3cccc(C)c3C)CC2)cc1	-2%	-3%	?	2%	1.1%	-3%	11%	/
O=C(Nc1nnc(/N=C/c2ccco2)s1)c1ccc(F)cc1	-6%	-1%	-8%	18%	-2.5%	14%	-19%	3%
CN(C)C(=O)COC(=O)c1cccnc1Nc1ccccc1F	?	1%	2%	-6%	-2.8%	3%	-2%	1%
Cc1ccccc1-n1c(C)cc(/C=C2\NC(=O)NC2=O)c1C	-1%	22%	-25%	8%	-14%	-18%	4%	?
Cc1cc(O)cc(O)c1C(=O)Cc1cnn(-c2ccccc2)c1	-7%	-59%	2%	0%	-7.0%	18%	-1%	7%
Cc1occc1C(=O)Nc1c(F)c(F)c(F)c(F)c1F	-5%	-3%	2%	-6%	6.5%	5%	-10%	?
C=CCn1c(CCNC(=O)c2ccc(Cl)c(Cl)c2)nnc1SCCOc1ccc(OC)cc1	1%	-44%	?	28µM*	-28%	?	3%	-4%
Cn1c(CC(=O)Nc2ccccc2)n[nH]c1=S	-3%	4%	/	-18%	/	-22%[46.1 µM]	-17%	-6%[46.1 µM]
O=C1CN(C(=O)C2CCCC2)CCN1	6%	3%	6%	-21%	1.4%	?	-4%	-1%
COc1ccc(C(=O)Nc2ccccc2C(=O)N2CCOCC2)cc1OC	-3%	1%	/	-4%	/	3%[46.1 µM]	-4%	10%
Cc1ccc2nc3c(cc(C(=O)NCC4CCCO4)n3C)c(=O)n2c1 (centres undefined)	-20%	-1%	?	/	-0.1%	/	/	/
CC(C)CN(C(=O)c1cc(Cl)nc2ccccc12)c1c(N)n(Cc2ccccc2)c(=O)[nH]c1=O	6%	/	/	0%	/	-13%	5%	7%
C=CCNC(=S)N/N=C(\C)c1cccc(OC)c1	?	-25%	5%	1%	-5.6%	18%	-7%	?
Clc1ccc(-c2nnc(Sc3nc4ccccc4o3)c3ccccc23)cc1	1%	-2%	-26%	/	1.1%	?	9%	?
CN(C)CCCNc1ncnc2oc(-c3ccccc3)c(-c3ccccc3)c12	0%	7%	/	-23%	/	8.9µM*	4%	?
COc1ccc(CCC(=O)N2CCCC(Nc3ccc(OC)cc3)C2)cc1 (centres undefined)	-2%	-8%	/	-2%	/	/	-13%	/
CCC(=O)c1ccc(OC(=O)c2cccs2)cc1	/	/	/	-11%	/	?	-13%	7%
Cc1cc(C)c2oc(-c3ccc(NC(=O)c4cc(Br)ccc4Cl)cc3)nc2c1	/	/	2.5µM*	-19%	-1.3%	/	/	10%[46.1 µM]

(continued)
compound	SARS PLpro yeast	NS1 function inh	Cruzain inh noDet	2A StopGo	Cruzain Triton	MARV entry inh	RE007 growth inh	LASV entry inh
CCN(CC)CCOc1ccc2nc(N(C)C)sc2c1	7%	?	-9%	42%[activator]	5.0%	1%&1%&1%[46.1 µM]	-1%	?
O=S1(=O)N(Cc2ccccc2)CCCN1Cc1ccc(F)cc1Cl	/	/	-13%	7%	-6.1%	/	/	14%[46.1 µM]
Cc1cc(C)c(S(=O)(=O)Nc2nnc(CC(C)C)s2)c(C)c1	-13%	-104%	/	-3%	/	/	-1%	/
CCOC(=O)N1CCN(S(=O)(=O)c2ccc(OC)cc2)CC1	-7%	-6%	/	-14%	/	/	7%	/
COc1ccc(S(=O)(=O)Nc2ccc3c(c2)sc(=O)n3C)cc1Cl	/	/	-13%	26%	-4.2%	/	/	-23%[46.1 µM]
CN(C)/C=C/C(=O)c1ccc2noc(-c3cccc(F)c3)c2c1	-4%	1%	/	-17%	/	/	4%	/
CN(C)CCCN(C(=O)COc1ccc(Cl)cc1)c1nc2cc3c(cc2s1)OCO3	-6%	3%	/	-7%	/	?	1%	?
COC(=O)C1CCCCN1C(=O)c1cc(COc2cccc3cccnc23)on1 (centres undefined)	1%	-7%	/	-20%	/	7%	-8%	-20%
CCOC(=O)c1c(S(=O)(=O)NCC(=O)Nc2ccccc2)c(C)n(C)c1C	-5%	-10%	/	36%[activator]	/	/	-18%	/
Cc1cccc(N=N/C(=C\O)C(=O)c2cccs2)c1	-17%	/	/	?	/	?	?	?
Cc1cc2ccccc2c(=O)n1CC(=O)NCC1COc2ccccc2O1 (centres undefined)	4%	-6%	2%	3%	8.3%	-19%	13%	-18%
COc1ccc(OC)c(NC(=O)COC(=O)/C=C/c2ccc(Cl)cc2)c1	-2%	0%	3%	-5%	-4.4%	15%	70%	-13%
COc1ccccc1CNC(=O)CCCn1nc(C)c2c(C)n(-c3ccc(C)cc3)nc2c1=O	9%	5%	0%	?	-3.3%	/	-17%	-2%[46.1 µM]
CC(CNC(=O)CN1C(=O)COc2ccc(S(=O)(=O)N3CCCCC3)cc21)c1ccccc1 (centres undefined)	0%	-7%	-3%	8%&14%	-0.9%	4%&4%[46.1 µM]	-4%	?
CCN1CCN(C(=O)c2ccc(Cl)c(S(=O)(=O)N3CCCCC3)c2)CC1	-1%	1%	/	-10%	/	7%	4%	-2%
CCN(CC)CCNC(=O)C1(O)c2cc(Br)ccc2NC(=O)N1c1ccccc1 (centres undefined)	0%	-1%	/	-18%	/	/	-1%	/
O=C(CN1C(=O)C(=O)N(Cc2ccco2)C1=O)c1c[nH]c2ccccc12	1%	12%	/	15%	/	/	6%	/
Cc1occc1-c1nnc(SCC(=O)Nc2ccccc2N2CCCCC2)n1C	-4%	-35%	-12%	-26%	-5.4%	-22%	10%	?
COc1ccccc1CNC(=O)CCC(=O)N1CC2CCCN2c2ccccc21 (centres undefined)	/	/	-14%	-20%	-4.3%	/	/	-11%[46.1 µM]
COc1ccccc1Nc1nc(Cl)nc(Nc2ccccc2OC)n1	4%	/	/	?	/	-29%[46.1 µM]	-1%	1%

From PubChem
